Insulin prom inh = inhibitors of insulin promoter-driven GFP, primary screen, imaging, TRM-6 cells (human fetal islet line), eGFP reporter, cell count; 130,000 compounds, 0.9% hits; inhibition, % at 2 µM; reporter expression induced with tamoxifen;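 active = inhibition above the mean plus 3 SD, with well images judged a real hit on visual review, cut at about 60% in these data, passing the limit was not always enough; inconclusive = inhibition over the cutoff but images rejected on review; inactive = inhibition not above the cutoff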
GALR2 agonist = GALR2 receptor agonists, primary screen, cell-based; GALR2-expressing cells, agonist activation read-out; activation, %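 (tested at 5 µM)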; AID 803, 2007; 140,000 compounds, 0.48% hits;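 active = above mean plus 3 SD of all compounds, about 5% in these data, not always enough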;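 note: 0% = vehicle buffer wells and 100% = reference agonist at full effect; tested in CHO reporter cells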
Target sequence (O43603 whole entry, looked up): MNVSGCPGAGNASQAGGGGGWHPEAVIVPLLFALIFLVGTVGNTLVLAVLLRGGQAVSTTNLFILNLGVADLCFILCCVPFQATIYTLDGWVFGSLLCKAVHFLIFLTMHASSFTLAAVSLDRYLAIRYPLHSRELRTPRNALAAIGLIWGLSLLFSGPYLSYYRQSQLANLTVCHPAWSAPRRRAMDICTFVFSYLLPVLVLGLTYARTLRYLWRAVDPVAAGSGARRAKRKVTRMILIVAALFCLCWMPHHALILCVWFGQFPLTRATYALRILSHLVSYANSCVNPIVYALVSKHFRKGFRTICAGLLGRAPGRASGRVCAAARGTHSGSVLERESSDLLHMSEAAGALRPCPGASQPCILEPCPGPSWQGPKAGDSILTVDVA
HSV augment = enhancers of HSV replication in host cells, fold increase, host cell viability; HSV replication augmentation in cells; maximum fold increase; 220,000 compounds, 0.005% hits; AID 1956, 2009;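 active = peak rise of 1.5-fold or more in the series; inconclusive = self-fluorescent or not available for retest; tested in PC3 cells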;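 note: first round at 10 µM; read as green reporter fluorescence; hits show the peak of a series up to 25 µM; 1 = signal of infected wells without compound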
RGS16-Gao HTS = modulators of RGS16 binding to Galphao, primary screen, biochemical, human proteins, multiplexed bead flow cytometry; binding response (% of control), % at 10 µM; bead-based flow cytometry RGS16-Galphao binding, fluorescence; actives lie on both sides; Regulator of G-protein signaling 16 (Homo sapiens) + Guanine nucleotide-binding protein …; 220,000 compounds, 0.38% hits;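 active = below 25% or above 175%, edge rows of some plates excepted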;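 note: Galphao activated by GDP with aluminum fluoride before binding; 100% = wells without compound and 0% = beads without RGS; some results beyond the cut were filed as inactive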
Target sequence (O15492 whole entry, looked up): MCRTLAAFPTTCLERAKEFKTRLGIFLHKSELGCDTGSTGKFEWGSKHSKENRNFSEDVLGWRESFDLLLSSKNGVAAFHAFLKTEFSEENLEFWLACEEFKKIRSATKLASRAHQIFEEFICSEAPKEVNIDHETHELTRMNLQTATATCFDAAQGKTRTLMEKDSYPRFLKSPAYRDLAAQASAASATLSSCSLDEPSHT
Target sequence (P09471 whole entry, looked up): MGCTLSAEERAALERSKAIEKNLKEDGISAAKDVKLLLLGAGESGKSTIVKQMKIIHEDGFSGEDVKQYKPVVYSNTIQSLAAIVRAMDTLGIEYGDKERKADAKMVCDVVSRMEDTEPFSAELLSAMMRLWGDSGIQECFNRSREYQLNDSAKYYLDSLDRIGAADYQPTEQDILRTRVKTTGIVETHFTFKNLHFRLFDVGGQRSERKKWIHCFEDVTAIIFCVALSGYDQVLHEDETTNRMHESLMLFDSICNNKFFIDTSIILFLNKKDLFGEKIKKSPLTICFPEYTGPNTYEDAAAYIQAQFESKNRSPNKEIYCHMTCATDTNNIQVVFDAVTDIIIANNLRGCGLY
PKD1 inh = inhibitors of human PKD1 kinase, biochemical, fluorescence polarization; PKD1 kinase fluorescence polarization assay; 200,000 compounds, 0.056% hits; AID 797, 2007; Serine/threonine-protein kinase D1 (Homo sapiens), Q15139; inhibition, %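 (about 10 µM by stock and volumes)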;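 active = inhibition of 50% or more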;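 note: controls were vehicle for no effect and a reference inhibitor for full effect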
Insulin prom inh cell count = further read-out of Insulin prom inh, marked with its call; normalized cell count, %; measured here: cell count, toxicity; reference of the scale not given here;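 cells exposed to compound for 48 h; stained nuclei by imaging scaled within each plate; lower means fewer cells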
HSV augment primary fold = further read-out of HSV augment, marked with its call; fold increase; compound at 10 µM; measured here: primary screen fold increase 10 uM; tested in PC3 cells;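 GFP signal in the first replicate; 1 = infected wells without compound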
Active calls of the source: *; i = inactive; ? = inconclusive; . = not tested or not shown.

SMILES	Insulin prom inh	Insulin prom inh cell count	GALR2 agonist	HSV augment	HSV augment primary fold	RGS16-Gao HTS	PKD1 inh
Cc1ccc(-c2csc3ncnc(NS(=O)(=O)c4ccc(Cl)cc4)c23)cc1	.	.	-1.0	i	1.1	123	-5
Cc1ccc(S(=O)(=O)NCCC(=O)Nc2ccc(C)cc2C(=O)c2ccccc2)cc1	-61	75	-1.2	i	0.94	102	-4
COCCN(CCOC)C(=O)Nc1ccc(Cl)cc1	-36	202	.	i	0.99	107	1
CCN(CC)S(=O)(=O)c1ccc(Cl)c(NC2=NCCCCC2)c1	.	.	.	i	1	99	-4
COc1cccc2cc(C(=O)C3=C(O)C(=O)N(CCN4CCOCC4)C3c3cccs3)oc12 (stereo unspecified)	.	.	-0.1	i	0.93	101	12
Cc1ccc(C(C)(C)C)c(OCCOCCN2CCCC2)c1	4	76	-1.4	i	0.85	94	-3
O=C(NCc1ccco1)c1ccc(-c2ccccc2Cl)o1	7	92	.	i	0.94	106	-5
CCOC(=O)N1CCN(C(=O)c2cn(CC(C)C)c(=O)c3c2c2ccccc2n3C)CC1	.	.	-1.8	i	0.87	105	-2
C=CCn1c(-c2cc(-c3ccccc3)sc2N)n[nH]c1=S	.	.	.	i	0.91	106	.
CC(C)c1ccc(C(=O)N2CCN(CCO)CC2)cc1	.	.	-3.2	i	0.97	99	0
CN(CP(=O)(O)C(O)c1ccccc1)S(C)(=O)=O (stereo unspecified)	0	120	0.5	i	1.1	82	12
CC1CN(C(=O)c2cc(S(=O)(=O)N3CCCC3)c(Cl)cc2Cl)CC(C)O1 (stereo unspecified)	38	102	-2.4	i	1.1	101	0
O=C(CSc1nc(N2CCCCC2)nc(N2CCCCC2)n1)N1CCN(c2ccccc2)CC1	.	.	0.5	i	0.94	101	-13
O=c1c2ccccc2n2nnnc2n1-c1ccccc1	39	98	-0.3	i	0.96	87	-1
CCN(CC)C(=O)Oc1ccc(Br)cc1C(=O)Nc1ccc(F)c(Cl)c1	.	.	.	i	0.94	103	.
O=C(NCc1ccc(F)cc1)N[C@@H](Cc1ccccc1)C(=O)O	.	.	-1.1	i	0.89	107	-11
Cc1ccc(N(CCCCN2C(=O)c3ccccc3C2=O)C(=O)c2cccs2)cc1	-19	105	-1.9	i	1	96	8
CCSCCOC(=O)C1=C(C)NC(=O)NC1c1cccc(OC)c1OC (stereo unspecified)	.	.	-2.3	i	0.98	101	-2
C(=N\n1cnnc1)/c1nc2ccccc2[nH]1	-30	75	-0.6	i	1	102	-11
CCN(Cc1ccccc1)C(=O)C1CCN(CC2CC=CCC2)CC1 (stereo unspecified)	-8	109	0.2	i	1	122	-8
CCOc1ccc(OCC)c(NC(=O)C2CCCN(S(=O)(=O)c3c(C)n[nH]c3C)C2)c1 (stereo unspecified)	.	.	-2.8	i	0.94	102	-2
CCCOC1CCCN(Cc2nc(-c3cnccn3)no2)C1 (stereo unspecified)	.	.	.	i	0.94	109	-7
CCNC(=O)n1nccc1C(C)Oc1ccccc1 (stereo unspecified)	-24	104	-1.6	i	0.74	70	0
COC(C[C@@H]1O[C@@H]1[C@@H](O)[C@H](C)OCc1ccccc1)OC	.	.	.	i	0.78	90	.
O=C(NCCc1c[nH]c2ccccc12)C(=O)Nc1ccccc1	.	.	.	i	0.95	105	-8
O=C1CC(C(=O)Nc2ccc(F)c(Cl)c2)N=C(N2CCCCC2)N1 (stereo unspecified)	-100	153	-2.8	i	0.83	102	-5
COc1ccc(OC)c(C2C3=C(CCCC3=O)Nc3c2c(=O)n(C)c(=O)n3C)c1 (stereo unspecified)	-10	142	-2.0	i	0.98	104	1
Cc1cc(C)nc(N2CCC(C(=O)NCc3cccc(C(F)(F)F)c3)CC2)n1	60	105	-2.5	i	0.88	104	-9
COC(=O)[C@H](CCSC)NC(=O)NCCc1ccccc1F	19	128	-2.6	i	0.87	109	-3
CCOC(=O)NC(=O)COC(=O)CNC(=O)c1ccc(OCC)c(OCC)c1	.	.	.	i	0.99	102	0
COc1ccc(C2NC(=O)NC(C)=C2[N+](=O)[O-])cc1OC (stereo unspecified)	.	.	.	i	0.88	100	.
CC(=O)N1Cc2cc(N)ccc2Oc2ccccc21	.	.	.	i	0.98	106	-2
Cc1ccc(/C=C/C(=O)OCC(=O)NCCN2C(=O)CSC2=O)cc1	-18	98	.	i	0.84	104	4
COC(=O)c1cc(C(=O)NCCN2C(=O)S/C(=C\c3cccs3)C2=O)cc([N+](=O)[O-])c1	-14	143	-1.3	i	0.93	99	6
CCOc1ccc(-c2nc(C)sc2CC(=O)O)cc1	33	75	-3.2	i	1.1	11	-5
O=C(CSCC(=O)N1CCOCC1)Nc1nc(-c2ccccc2)cs1	.	.	.	i	0.58	96	.
CC(C)(C)NC(=O)CN(Cc1cccs1)C(=O)CCN1CCc2ccccc21	0	114	.	i	1	101	-1
CCOC(=O)N1CN(C(=O)OCC)CN(C(=O)OCC)C1	.	.	.	i	0.92	-22*	.
O=C1NC2(Nc3ccccc31)C(=O)Nc1ccc(Br)cc12 (stereo unspecified)	.	.	.	i	1	104	-2
COc1ccc(C(=O)N/N=C(\C)CC(=O)N2CCN(C=O)CC2)cc1	29	155	-1.8	i	1	104	-5
CCc1nc2ccccc2c(C(=O)OCc2nnc(-c3ccccc3)o2)c1C	.	.	-0.5	.	.	97	5
O=c1c2c(ncn1Cc1ccccc1)nc1n2CCC1	22	122	-0.5	i	0.97	102	-11
COc1ccc(OC)c(C2=NOC(C(=O)Nc3cc(C)on3)C2)c1 (stereo unspecified)	.	.	.	i	0.96	107	.
CC(C)OC(=O)c1ccc(S(N)(=O)=O)o1	.	.	1.4	i	0.95	67	-4
COc1ccc(CNC(=S)Nc2ccc(S(N)(=O)=O)cc2)cc1	-59	102	.	i	0.82	95	9
CCC(=O)Nc1ccc(Cl)c(NC(=O)C(C)C)c1	-53	57	-2.8	i	1.1	98	-6
Cn1c(=O)c(C(=O)CSc2ccccc2)c(N)n(Cc2ccccc2)c1=O	.	.	.	i	1.1	101	-6
CCOC(=O)Nc1c(C)n(C)n(-c2ccccc2)c1=O	.	.	.	i	0.71	104	.
CCOC(=O)N1CCN(C(=O)C2CCN(S(=O)(=O)c3c(C)cc(C)cc3C)CC2)CC1	16	64	18*	i	0.89	93	10
COCCCNC(=O)C(=O)NCCCOC(C)C	-19	118	-2.9	i	0.94	100	-3

3 of these compounds, reformatted:
> O=C(CSCC(=O)N1CCOCC1)Nc1nc(-c2ccccc2)cs1
- Insulin prom inh: .
- Insulin prom inh cell count: .
- GALR2 agonist: .
- HSV augment: i
- HSV augment primary fold: 0.58
- RGS16-Gao HTS: 96
- PKD1 inh: .
> CC(C)(C)NC(=O)CN(Cc1cccs1)C(=O)CCN1CCc2ccccc21
- Insulin prom inh: 0
- Insulin prom inh cell count: 114
- GALR2 agonist: .
- HSV augment: i
- HSV augment primary fold: 1
- RGS16-Gao HTS: 101
- PKD1 inh: -1
> CCOC(=O)N1CN(C(=O)OCC)CN(C(=O)OCC)C1
- Insulin prom inh: .
- Insulin prom inh cell count: .
- GALR2 agonist: .
- HSV augment: i
- HSV augment primary fold: 0.92
- RGS16-Gao HTS: -22*
- PKD1 inh: .

(more compounds)
SMILES	Insulin prom inh	Insulin prom inh cell count	GALR2 agonist	HSV augment	HSV augment primary fold	RGS16-Gao HTS	PKD1 inh
COc1ccc(C(CNC(=O)Cc2cc(OC)c(OC)c(OC)c2)N2CCCC2)cc1 (stereo unspecified)	.	.	-1.1	i	0.88	.	-15
Cc1ccc(C(=O)NCCOc2cccc(C)c2)cc1	-17	143	.	i	1.1	102	6
Cc1ccc(-n2ncc(C#N)c2/N=C/N(C)C)cc1	-15	122	0.3	i	1	106	13
CCCCN1C=C(C(=O)OC)C(c2ccccc2Cl)C(C(=O)OC)=C1	.	.	.	i	1	91	-5
O=C(NN1C(=O)c2ccccc2C1=O)c1ccccc1[N+](=O)[O-]	-6	123	.	i	0.97	103	3
CCOC(=O)C1C(C)N=C2SCC(=O)N2C1c1cccc(Br)c1 (stereo unspecified)	-54	95	-1.2	i	0.97	98	-13
Cc1nnc(SCc2ccc(C(=O)c3ccc(Cl)cc3)o2)n1-c1ccccc1	-3	81	-1.4	i	0.91	100	-5
Cc1cc2cc(C(c3nnnn3Cc3ccco3)N3CCCCC3)c(=O)[nH]c2cc1C (stereo unspecified)	.	.	-1.8	i	1	96	1
CCCCCCc1nc2ccccc2c(=O)n1NC(=O)c1c(O)c2cccc3c2n(c1=O)CCC3	-31	102	-2.0	.	.	90	3
Cc1nc(CC(C)C)cc(C(=O)N2CCCC(CNS(=O)(=O)c3cccs3)C2)n1 (stereo unspecified)	-421	59	.	i	1	105	-4
COc1ccccc1C(=O)NCc1ccncc1	.	.	-2.4	i	0.84	99	-7
CC(=O)COc1ccccc1OC(=O)c1ccco1	-25	82	-1.0	i	1.1	97	-6
COc1cc(C2C(C(C)=O)=C(O)C(=O)N2CCN2CCOCC2)ccc1O (stereo unspecified)	-45	199	-1.4	i	0.96	104	2
COc1cc(OC)c2c(=O)c(OC)c(-c3ccc(OC)c(OC)c3)oc2c1	.	.	.	i	0.77	86	12
CCOC(=O)/C(C#N)=C/Nc1ccsc1C(=O)OC	.	.	.	i	1.1	88	.
O=C(NC1CCCC1)C(c1cccs1)N(C(=O)c1ccco1)c1ccc2c(c1)OCCO2 (stereo unspecified)	-30	106	-1.6	i	1	102	-10
FC(F)(F)c1ccc(-c2noc(CN3CCCN(C4CCCCC4)CC3)n2)cc1	.	.	.	i	0.92	104	9
COc1ccc(C2CC(=O)c3cnc(NC(=O)c4ccccc4)nc3C2)cc1OC (stereo unspecified)	.	.	-0.9	i	0.87	101	-5
COC(=O)C1=C(NC(=O)c2cccs2)CCS1	27	197	-1.7	i	1.1	101	-3
COc1ccc(C2=NOC(CNC(N)=S)C2)cc1 (stereo unspecified)	0	69	.	i	0.95	85	-5
Cc1ccc(-c2csc(N(CC3CCCO3)C(=O)c3ccco3)n2)cc1 (stereo unspecified)	-33	152	-0.9	i	0.71	111	-5
CN(C)c1ccc(CNC(=O)CN(C)S(=O)(=O)c2cccc3cccnc23)cc1	.	.	0.1	i	0.87	128	0
Cc1c(NC(=O)C2CCN(S(=O)(=O)c3ccccc3)CC2)c(=O)n(-c2ccccc2)n1C	.	.	-1.0	i	0.91	105	3
O=C(NCC(c1cccnc1)N1CCOCC1)Nc1ccccc1 (stereo unspecified)	0	93	-3.7	i	0.87	102	5
COc1ccc(Cc2nnc(NS(=O)(=O)c3ccccc3)s2)cc1	7	110	.	i	0.97	112	0
COc1cccc(N2CC(C(=O)Nc3nnc(SCc4ccccn4)s3)CC2=O)c1 (stereo unspecified)	.	.	-0.7	i	0.9	101	-13
CC1CN(Cc2nc3c(c(=O)[nH]c(=O)n3C)n2CCN2CCOCC2)CC(C)O1 (stereo unspecified)	-6	112	-2.3	i	0.86	105	-3
C=C(C)CSc1nc2c(c(=O)[nH]c(=O)n2C)n1CCC(C)C	.	.	-2.3	i	0.83	99	-6
Cc1cccnc1CN1CCN(Cc2nc(C(c3ccccc3)c3ccccc3)no2)CC1	.	.	.	i	1	98	0
CCCN1CCC2(CC1)C(C#N)=C(N)Oc1c2sc2nc(C)cc(C)c12	0	114	-1.8	?	.	96	9
COc1ccc(C(=O)N/N=C(\C)CC(=O)Nc2cccc(C(F)(F)F)c2)cc1	.	.	.	i	0.97	129	.
COc1ccc(C2C3=C(CC(c4ccco4)CC3=O)Nc3ccccc3N2C(C)=O)cc1 (stereo unspecified)	3	81	-2.0	i	1.1	103	1
Cc1nn(C)cc1S(=O)(=O)NC1CCCC1	24	75	.	i	1.1	103	-3
Cc1nn(-c2ccccc2)nc1CNC(=O)C(C)Cc1ccccc1 (stereo unspecified)	0	108	-0.5	i	0.9	103	-5
O=C(CSc1ncccc1C(=O)O)NCCC1=CCCCC1	.	.	-1.2	i	1.2	102	-14
O=C(COC(=O)[C@H](Cc1ccccc1)NC(=O)c1cccs1)Nc1cc(F)ccc1F	.	.	-0.5	i	0.99	109	-6

6 entries out of the list above, ordered by their value in HSV augment primary fold, falling.
SMILES	HSV augment primary fold
CCOC(=O)/C(C#N)=C/Nc1ccsc1C(=O)OC	1.1
Cc1cc2cc(C(c3nnnn3Cc3ccco3)N3CCCCC3)c(=O)[nH]c2cc1C (stereo unspecified)	1
CCSCCOC(=O)C1=C(C)NC(=O)NC1c1cccc(OC)c1OC (stereo unspecified)	0.98
O=c1c2c(ncn1Cc1ccccc1)nc1n2CCC1	0.97
COc1ccc(C2CC(=O)c3cnc(NC(=O)c4ccccc4)nc3C2)cc1OC (stereo unspecified)	0.87
COc1ccccc1C(=O)NCc1ccncc1	0.84
